# GLA inh pH 4.5 – blocks human alpha-galactosidase A at pH 4.5. P06280. activity change, negative = inhibition, % at 105 µM. purified enzyme, 4-MU-alpha-Gal fluorescence, pH 4.5. 230,000 tested, under 10 active. AID 1467; inconclusive = small, poorly fitted or top-dose-only inhibition, or a rising curve; inactive = flat fitted curve, though single readings scatter; no compound was filed as active;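 also: 0% = full activity with enzyme and -100% = basal without enzyme; dose as in the result columns while the protocol names 77 µM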
# miR-21 reporter – raises the signal of a miR-21 reporter; 340,000 tested, under 10 active; Potency, µM (highest dose often 38.3 µM), for inactives: at the top dose reporter change, positive = more light; HeLa miR-21 FLuc reporter, luciferase, 48 h; AID 2288; active = well fitted rising curve with a large enough effect; inconclusive = small, poorly fitted or top-dose-only effect; inactive = no such curve, though single readings can be large or run the other way;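 also: % of control where 0% means no effect; miR-21 action dims this reporter so a rising signal means less miR-21 action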
#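 HeLa cells endogenously expressing miR-21, stably carrying CMV-driven firefly luciferase with a downstream miR-21 binding site, 2000 cells/well. Titrations up to approximately 40 uM, 48 hours; luciferase luminescence read.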
# Rango complex inh – prevents formation of the Rango-importin beta complex; Q14974; Rango CFP/YFP FRET sensor + importin beta, 45 min; Potency, µM (highest dose often 92.2 µM), without a hit: at the highest dose inhibition of complex formation; 0.031% of 340,000 active; active = rising FRET ratio curve, often small or poorly fitted; inconclusive = mostly compound fluorescence or quenching in the first reads; inactive = flat curves in all reads;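 also: potency is read from the fitted curve at half-maximal effect; 0% = DMSO wells and 100% = buffer wells lacking importin beta; nearly all actives have a fitted effect of over 15% in size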
# Target sequence (Q14974 whole entry, looked up): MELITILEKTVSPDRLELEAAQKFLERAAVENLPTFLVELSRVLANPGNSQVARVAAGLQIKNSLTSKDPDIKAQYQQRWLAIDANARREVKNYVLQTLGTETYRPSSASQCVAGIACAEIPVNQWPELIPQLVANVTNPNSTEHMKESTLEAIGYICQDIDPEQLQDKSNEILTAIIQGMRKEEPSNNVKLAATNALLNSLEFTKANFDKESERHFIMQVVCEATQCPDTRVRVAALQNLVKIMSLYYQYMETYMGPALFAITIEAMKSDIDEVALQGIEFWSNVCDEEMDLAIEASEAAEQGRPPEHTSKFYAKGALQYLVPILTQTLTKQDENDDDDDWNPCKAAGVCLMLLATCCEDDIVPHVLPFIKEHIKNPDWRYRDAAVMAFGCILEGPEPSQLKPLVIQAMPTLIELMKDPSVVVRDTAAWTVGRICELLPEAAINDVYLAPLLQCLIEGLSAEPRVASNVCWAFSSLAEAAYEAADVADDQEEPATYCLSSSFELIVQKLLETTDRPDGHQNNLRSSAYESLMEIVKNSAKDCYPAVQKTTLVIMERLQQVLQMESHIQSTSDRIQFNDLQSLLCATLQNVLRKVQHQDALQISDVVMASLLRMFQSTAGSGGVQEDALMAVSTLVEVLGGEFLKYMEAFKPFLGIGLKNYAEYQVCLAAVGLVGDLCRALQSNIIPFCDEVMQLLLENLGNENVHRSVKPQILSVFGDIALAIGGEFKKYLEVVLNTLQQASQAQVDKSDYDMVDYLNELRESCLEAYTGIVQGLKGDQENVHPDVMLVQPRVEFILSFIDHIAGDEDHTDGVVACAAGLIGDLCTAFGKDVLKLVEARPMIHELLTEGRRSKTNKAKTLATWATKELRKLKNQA
#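 FRET biosensor Rango (snurportin 1 IBB between N-terminal EYFP and C-terminal Cerulean), 50 nM in PBS/1 mM DTT/0.02% Tween-20/0.1% BSA, preincubated 5 min RT with compound; 0.125 microM importin beta added, 45 min RT, CFP/YFP FRET ratio read.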
# Rango release inh – inhibitors of RanGTP-induced Rango-importin beta complex dissociation | O95149+P62826 | Biochemical FRET Rango-importin beta, RanGTP-induced dissociation | Potency, µM (series often up to 46.1 µM), inactives show at the highest dose activity change, negative = inhibition | 0.071% of 340,000 active; active means falling FRET ratio curve, often poorly fitted, with flat reads before Ran was added; inconclusive means other falling curves, or compound fluorescence or quenching; inactive means flat or rising ratio curve;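 also: potency is read from the fitted curve at half-maximal effect; % of control where 0% means no effect; nearly all actives have a fitted effect of over 45% in size; -100% = wells without RanGTP and RCC1; the record marks most hits as doubtful in a second field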
#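 Two FRET readings bracket the reaction: one 5 min after compound meets Rango–importin beta, another 45 min after RanGTP-RCC1 (0.6 uM Ran, 0.2 uM RCC1, 2 mM GTP) is added. Only the second defines inhibition.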
# * = called active by the depositor; ? = inconclusive; / = not tested or not shown; & = joins results of further samples; [ ] = another dose, or the depositor's remark. An excerpt, so the mix of outcomes need not match the whole.
# Under each structure – GLA inh pH 4.5 | miR-21 reporter | Rango complex inh | Rango release inh
O=C(NCCCN1CCOCC1)c1cccc(S(=O)(=O)N2CCN(c3ccccc3)CC2)c1
    / | / | -1.6% | -25%
CCC(C)c1ccc(NC(=S)Nc2ccc(OC)cc2)cc1 (stereo unspecified)
    -22 | -12% | 2.9% | -14%
O=C1C2C3C=CC(CC3)C2C(=O)N1c1ccccc1F (stereo unspecified)
    / | -3% | -0.3% | 12%
CC(C)(C)OC(=O)N1Cc2ccccc2C[C@H]1C(=O)O
    11 | -2% | -0.4% | 15%
COc1cccc(C(=O)Nc2c3c(nn2-c2ccccc2C)CS(=O)C3)c1OC (stereo unspecified)
    -4 | 0% | -0.6% | 10%
CC(=O)c1cccc(NC(=O)CN2C(=O)NC(C)(C)C2=O)c1
    / | / | -0.4% | 8%
COC(=O)CC1C(=O)NCCN1C(=O)NC1CCCCC1 (stereo unspecified)
    5 | -2% | -4.6% | 7%
Cc1ccc(OCCN2CCCC2)cc1
    / | -2% | 1.7% | 16%
NC1=NC(=O)CC(C(=O)NCCc2ccccc2)S1 (stereo unspecified)
    2 | 0% | 0.9% | 2%
CC(=O)Nc1ccc(NC(=O)C(C)OC(=O)CCSc2ccccc2Cl)cc1 (stereo unspecified)
    / | / | 3.1% | -12%
O=C(CCCn1c(=S)[nH]c2ccccc2c1=O)NC1CCCCC1
    10 | -4% | ? | -16%
Cc1cccc(CN2C(=O)c3ccccc3Sc3ccc(C(=O)NCCN4CCOCC4)cc32)c1
    -16 | -3% | ? | -6%
COC(=O)c1cccc(N2C(=O)C3C4C=CC(CC4)C3C2=O)c1 (stereo unspecified)
    / | -4% | 0.7% | -8%
COc1ccc(OC)c(NC(=O)c2cccc3c2C(=O)N(C2CCCCC2)C3)c1
    / | -3%&-8% | -2.4% | -20%
O=S(=O)(NCc1ccc2c(c1)OCO2)c1ccc(F)cc1
    / | -1% | 3.1% | -1%
COc1ccc(C(C)(C)NC(=O)C2CCC(=O)N(C3CC3)C2)cc1OC (stereo unspecified)
    / | -1% | -0.6% | -7%
CC(=O)Nc1ccc(S(=O)(=O)N2CCC(C(=O)NCCC(=O)NCc3ccncc3)CC2)cc1
    / | 3% | -1.2% | -1%
O=C(Cc1ccccc1)Nc1cc(C(=O)c2ccccc2)ccc1N1CCOCC1
    2 | 15% | -1.7% | 1%
O=C(C1CCN(S(=O)(=O)c2ccccc2)CC1)N1CCOCC1
    7 | -1% | -4.4% | 5%
CCN(CC)CCSc1nc(O)c(-c2ccccc2)c(=O)n1-c1ccccc1
    3 | -1% | 1.6% | 6%
CCc1sc(C(=O)Nc2cccnc2)cc1Br
    / | -38% | -1.1% | -12%
CCOC(=O)N1CCN(C(=O)CN(c2ccc(OC)c(OC)c2)S(C)(=O)=O)CC1
    -1 | 2% | -0.2% | -5%
O=C(CCN1CCN(c2ccccc2F)CC1)Nc1ccccc1Cl
    / | -7% | 0.7% | 4%
COc1ccc(-c2csc3ncnc(N4CCN(S(=O)(=O)c5cccc(C(F)(F)F)c5)CC4)c23)cc1
    / | / | -1.5% | -4%
O=S1(=O)[C@H]2C[C@H](CO)O[C@@]2(CO)CN1Cc1ccc(-c2ccc(F)cc2)cc1
    / | / | -1.7% | 19%
CC(=O)c1ccc(NC(=S)NC(=O)/C=C/c2ccccc2)cc1
    / | -26% | -0.2% | 5%
COc1ccccc1OCCSc1nc2ccccc2n1CC(N)=O
    / | -4% | 2.2% | 1%
O=C(Nc1nnc(-c2ccco2)o1)c1ccc(Cl)s1
    / | -4% | -1.2% | -10%
O=C(Nc1nccs1)c1cnccn1
    -2 | -15% | -0.4% | 0%
Cn1c(=O)c(-c2ccccc2)nn2c3ccccc3nc12
    -2 | -1% | -4.7% | -11%

# Four entries drawn at random from those above:
# Under each structure – GLA inh pH 4.5 | miR-21 reporter | Rango complex inh | Rango release inh
CCC(C)c1ccc(NC(=S)Nc2ccc(OC)cc2)cc1 (stereo unspecified)
    -22 | -12% | 2.9% | -14%
CC(=O)c1ccc(NC(=S)NC(=O)/C=C/c2ccccc2)cc1
    / | -26% | -0.2% | 5%
CC(=O)Nc1ccc(NC(=O)C(C)OC(=O)CCSc2ccccc2Cl)cc1 (stereo unspecified)
    / | / | 3.1% | -12%
Cc1cccc(CN2C(=O)c3ccccc3Sc3ccc(C(=O)NCCN4CCOCC4)cc32)c1
    -16 | -3% | ? | -6%

# (list continues)
# Under each structure – GLA inh pH 4.5 | miR-21 reporter | Rango complex inh | Rango release inh
CN(C)CCCN(Cc1ccccc1)C(=S)Nc1cccc(C(F)(F)F)c1
    -16 | -7% | 0.2% | -8%
CC(C)c1ccc(NC(=O)C2CCCN(S(=O)(=O)c3cccnc3)C2)cc1 (stereo unspecified)
    / | 24% | -0.5% | -7%
O=C(Nc1ccccc1)Nc1nnc(Cc2ccccc2F)s1
    / | -6% | -0.7% | 7%
COc1ccc(C(CNC(=O)Cc2ccccc2Cl)N2CCCCC2)cc1 (stereo unspecified)
    / | -6% | -2.3% | -3%
COc1ccc2[nH]c3c(=O)n(CCCC(=O)NC4CCC(C)CC4)c(=S)[nH]c3c2c1 (stereo unspecified)
    / | 0% | -0.2% | 27%
COc1ccc(NC(=O)CSc2nnc(-c3ccccc3F)n2C2CC2)cc1S(N)(=O)=O
    3 | 1% | -0.2% | -7%
C[C@H]1CN([C@@H](C)CO)C(=O)Cc2cc(NC(=O)C3CC3)ccc2O[C@H]1CN(C)Cc1ccc(Oc2ccccc2)cc1
    / | / | -2.7% | 3%
CCN(CC(=O)Nc1cccc(S(=O)(=O)N(C)c2ccccc2)c1)Cc1cccs1
    / | / | 0.0% | 2%
COc1ccccc1N1C(=O)c2ccccc2NC1C(OC)OC (stereo unspecified)
    6 | -1%[7.66 µM] | 7.2% | -16%
O=C(NCc1ccco1)C1CCCN1C(=O)Nc1ccccc1 (stereo unspecified)
    -1 | -3% | 7.6% | 5%
Cc1nc(-c2cccs2)sc1C(=O)O
    2 | -11% | 0.3% | 21%
O=C(O)CCN1C(=O)S/C(=C\c2cccnc2)C1=O
    1 | 4% | -0.8% | 4%
O=C(N[C@H]1C/C=C\C[C@H](CC(=O)N(CCO)Cc2ccccc2)C(=O)N[C@@H](c2ccccc2)COC1=O)OCC1c2ccccc2-c2ccccc21
    / | / | -0.2% | -13%
O=C(CNc1cc(S(=O)(=O)N2CCOCC2)ccc1NCC1CCCO1)Nc1cccc(F)c1 (stereo unspecified)
    / | -1% | 2.9% | 19%
O=C(CC(=O)NN=C1CCCC1)NCCc1ccccc1
    2 | -2% | -0.6% | -2%
Cc1ccc(OCC(=O)N2CCN(c3nnc(-c4ccc(C)cc4)c4ccccc34)CC2)cc1
    -1 | 29% | 0.8% | 8%
O=C(NC(=S)Nc1ccc2oc(-c3cccnc3)nc2c1)c1cccc(Cl)c1
    -4 | -6% | -0.6% | 12%
COc1ccc(NC(=O)C2CCCN(c3ncccn3)C2)cc1 (stereo unspecified)
    / | -68% | -1.2% | 8%
COC(=O)c1c(NC(=O)CN2CCC3(O)CCCCC3C2c2ccc(F)cc2)sc(C)c1C (stereo unspecified)
    -7 | 0% | -0.1% | 7%
CC(C)(C)C(=O)Nc1ccc(N=Nc2ccccc2)cc1
    5 | -11% | -1.4% | 0%
O=C(NO)c1ccccc1O
    / | -4% | ? | -7%
CCCCCCCCNS(=O)(=O)CCNCc1ccc(OC)cc1
    / | / | -0.7% | -8%
CCn1c(SCC(=O)OCc2ccccc2)nc2c1c(=O)n(C)c(=O)n2C
    -2 | 5% | 1.7% | -15%
CCn1ccnc1CN(C)Cc1cn[nH]c1-c1ccc(OC)c(F)c1
    2 | 11% | -1.1% | ?
CCN(CC(=O)N1CCOCC1)S(=O)(=O)c1ccc(F)cc1
    / | 2% | -0.5% | 1%
Cc1cc(N2CCC(C)CC2)nc(SCC(=O)c2ccccc2)n1
    -29 | 0% | 3.0% | -6%
O/C(=C\c1nc2ccccc2[nH]1)c1cccs1
    / | -46% | ? | -11%
CCCCN(C)CCCNC(=O)/C=C1\Sc2ccccc2NC1=O
    -4 | -7% | -1.1% | -17%
CCNc1nc(NCC)nc(N/N=C/c2ccc(Br)cc2)n1
    -4 | 6% | 4.6% | 5%
O=C(O)C1CCN(C(=O)CCc2ccccc2)CC1
    -26 | -1% | -0.1% | 10%
O=C(c1ccc(S(=O)(=O)N2CCOCC2)cc1)N1CCN=C1SCc1cccnc1
    3 | -2% | 0.1% | -11%
COc1ccccc1CNC(=O)CCS(=O)(=O)c1cccs1
    2 | -18% | 2.0% | 2%
O=C(OCC(=O)c1c[nH]c2ccccc12)c1cccc(S(=O)(=O)N2CCCCCC2)c1
    -14 | -9% | -0.9% | 10%
Cc1cc(C)c2c(=O)n(CC(=O)Nc3ccc(Br)c(C)c3)sc2n1
    -8 | 17% | 1.0% | 1%
O=C(NC(=S)Nc1ccc(NC(=O)c2cccs2)cc1)c1ccc([N+](=O)[O-])cc1
    -1 | -10% | -1.1% | 1%
Cc1noc(C)c1-c1ccc2ncnc(NCC3CCCCN3C)c2c1 (stereo unspecified)
    / | / | -5.1% | 10%
COc1ccc(OC)c(/C=C2\N=C(c3ccccc3)OC2=O)c1
    / | -3% | ? | ?
Cc1c(O)c(CN2CCCC2)cc2c1oc(=O)c1ccccc12
    5 | -25% | 3.2% | -13%
Cc1cc(C)cc(NC(=O)C(=S)NCc2ccccc2)c1
    -7 | -7% | -0.5% | -3%
Cc1ccc(C(=O)N2CCN(c3ccc(NC(=O)c4cccnc4)cc3)CC2)cc1
    -7 | -3% | 1.3% | -7%
O=C(Nc1ccccc1-c1nnn(CC(=O)N2CCCc3ccccc32)n1)c1cccc(Cl)c1
    / | / | ? | -14%
O=C(CN1CCSCC1)N/N=C/c1ccc(F)c(F)c1
    -7 | -8% | 9.5% | -14%
O=C(C[C@@H]1C/C=C/CC[C@@H](Cc2ccc(F)cc2)C(=O)O[C@@H](c2ccccc2)CNC1=O)NCCO
    / | / | 10% | 14%
COc1ccc([N+](=O)[O-])cc1N(CC(O)CN1CCCC1)S(=O)(=O)c1ccc(C)cc1 (stereo unspecified)
    2 | -2% | 4.7% | 0%
O=C(/C=C\c1ccc2c(c1)OCO2)Nc1c2c(nn1-c1ccc(Cl)cc1)CSC2
    -4 | 4% | 2.1% | -2%
COc1cc2ccccc2cc1C(=O)Nc1ccc(CN2CCOCC2)cc1
    / | -51% | 1.0% | -13%
Cc1nc(SCC(=O)NC(=O)NCCC(C)C)c2c(-c3cccs3)csc2n1
    7 | -4% | -0.3% | -4%
O=C(NCCc1ccccc1)c1cccc2c1C(=O)c1ccc(N3CCOCC3)cc1S2(=O)=O
    / | / | ? | ?
Cn1cc(CCC(=O)NC2CC2)c2ccccc21
    / | 0% | 0.5% | 4%
O=C(c1ccncc1)N(c1ccc2oc3c(c2c1)CCCC3)S(=O)(=O)c1cccc([N+](=O)[O-])c1
    -2 | -6% | -0.3% | 17%
CCOc1cccc2c1OC1(CCCCC1)N1N=C(c3cccnc3)CC21 (stereo unspecified)
    0 | -66% | -1.8% | -12%
O=C(O)CCCN1C(=O)C2C3CCC(O3)C2C1=O (stereo unspecified)
    2 | -3% | 0.0% | 1%
O=[N+]([O-])c1ccc(NN=C2CCCCC2)c([N+](=O)[O-])c1
    / | / | 4.1% | 21%
O=C(OCc1ccccc1)N1CCC2CC1c1cc(N3CCOCC3)ccc12 (stereo unspecified)
    / | / | -4.0% | 1%
Cc1ccc(OCC(O)CNC(=O)c2ccccc2C(=O)O)cc1 (stereo unspecified)
    -20 | -9% | 1.8% | -5%
COC(=O)COc1ccc(S(=O)(=O)N2CCN(c3ccccc3F)CC2)cc1C
    -9 | -1% | 2.9% | 18%
O=C(NCc1ccco1)c1cc(-c2ccccc2)nc2ccccc12
    -6 | 5% | -2.8% | 20%
Cc1c(NC(=O)OCCNC(=O)COc2ccc(Cl)cc2Cl)sc(=S)n1C
    1 | -11% | 4.3% | -9%
COC(=O)c1ccc(CN2CCN(C3CCCC3)C(CCO)C2)cc1 (stereo unspecified)
    -3 | 0% | -0.6% | -3%
Cc1cccc(OCC(=O)Nc2ccc(N3CCN(C(=O)c4ccccc4)CC3)cc2)c1C
    / | 10% | -2.7% | 16%
N#Cc1c(NC(=O)/C=C/C(=O)O)sc2c1CCN(Cc1ccccc1)C2
    / | -2% | ? | ?
